Screening results as filed in PubChem BioAssay.
VACV mCherry inh = inhibitors of vaccinia virus infection (mCherry reporter signal); Potency, µM (series often up to 36.5 µM), inactives show at the highest dose activity change, negative = inhibition, hits mostly inhibitors; Vaccinia virus mCherry reporter infection, fluorescence; about a quarter of the inactives have no number; 310,000 tested, 0.63% active; AID 720579; active = well fitted inhibition curve with a large enough effect; inconclusive = small, poorly fitted or top-dose-only effect; inactive = no such curve, though single readings can be large or run the other way; tested in A549 cells; also: nearly all actives have a fitted effect of over 35% in size; inactives centre near -10
VACV Venus inh = inhibitors of vaccinia virus (Venus reporter) | AID 720580 | Vaccinia virus Venus reporter expression, fluorescence | 330,000 tested, 0.46% active | Potency, µM (top dose mostly 36.5 µM), without a hit: at the top dose activity change, negative = inhibition, usual class: inhibitors; active means well fitted inhibition curve with a large enough effect; inconclusive means small, poorly fitted or top-dose-only effect; inactive means no such curve, though single readings can be large or run the other way; tested in A549 cells; also: nearly all actives have a fitted effect of over 30% in size; inactives centre near -10
Starred values were filed as active, the others as inactive; i = inactive; ? = inconclusive; / = not tested or not shown; [ ] = dose if it differs, or a comment. % is scaled to controls: 0 for no effect and ±100 for the full control effect; potency is read from the fitted curve at half-maximal effect.

SMILES	VACV mCherry inh	VACV Venus inh
O=C(NCCc1nc2ccccc2[nH]1)/C(=C/c1ccco1)NC(=O)c1ccco1	-16.3%	-16.8%
O=C(NCCS(=O)(=O)N1CCN(c2ccccc2)CC1)c1ccco1	i	-17.2%
COc1ccc(CCNC(=O)Cn2nnc(C(=O)Nc3ccc(Br)cc3)c2N)cc1OC	-19.5%	-12.0%
O=C(Nc1ccc([N+](=O)[O-])cc1)c1cccc(S(=O)(=O)Nc2cccnc2)c1	-14.7%	-9.1%
Cc1ccc(S(=O)(=O)NNC(=O)c2cccc(O)c2)cc1	i	-7.8%
Cc1cc(C(=O)N2CCC(C(=O)O)CC2)c(C(F)(F)F)o1	-12.4%	-9.5%
CC(=O)Nc1ccc(S(=O)(=O)NC2CCS(=O)(=O)C2)cc1Cl (stereo unspecified)	-0.2%	-17.5%
Cc1ccc2c(c1)cc1c(=O)n(CC(=O)NC3CCCCC3)nc(C)n12	-20.0%	-6.1%
COc1ccc(NC(=O)C(=O)NCCCO)cc1Cl	i	-9.0%
CCOc1cc(/C=N/NC(=O)c2cccnc2)ccc1OCC(=O)N1CCOCC1	-14.0%	-4.1%
C=CCNC(=O)C(C#N)c1nc2ccccc2nc1N1CCN(Cc2ccccc2)CC1 (stereo unspecified)	-13.0%[1.46 µM]	-16.0%
O=C(CCSc1nc(-c2ccco2)cc(C(F)(F)F)n1)NCC1CCCO1 (stereo unspecified)	/	-15.0%
Cc1ccc(-n2nc3c(N4CCC(C(=O)NC(C)C)CC4)nnc(C)c3c2C)cc1	-28.3%	-20.7%
CC(=O)N1CCN(c2ccc(NC(=O)c3cccc(Cl)c3Cl)cc2)CC1	-15.2%	-16.6%
Nc1ccc(SCC(=O)Nc2cccc([N+](=O)[O-])c2)cc1	i	-1.9%

In another format: entries from further up.
| canonical_smiles | VACV mCherry inh | VACV Venus inh |
| --- | --- | --- |
| Nc1ccc(SCC(=O)Nc2cccc([N+](=O)[O-])c2)cc1 | i | -1.9% |
| COc1ccc(CCNC(=O)Cn2nnc(C(=O)Nc3ccc(Br)cc3)c2N)cc1OC | -19.5% | -12.0% |

The list continues:
SMILES	VACV mCherry inh	VACV Venus inh
Cn1nnnc1SCCCNCc1cccc(OCc2ccccc2)c1	-11.0%	-17.2%
Cc1ccc(/C=N/Nc2cc(C)nc(NCc3ccccc3)n2)cc1	?	-7.1%
CCN(CC)S(=O)(=O)c1cc(C(=O)Nc2ccccc2[N+](=O)[O-])ccc1Cl	i	-12.9%
CCN1CCN(Cc2c(O)ccc3c(=O)c(Oc4ccccc4C(C)C)c(C(F)(F)F)oc23)CC1	4.9%	-3.9%
COc1cc(NC(=O)C2(C)CCN2C(C)C)cc(OC)c1OC (stereo unspecified)	-9.3%	4.1%
CCCOc1ccc(-c2csc3ncn(Cc4ccc(C(=O)O)cc4)c(=O)c23)cc1	-3.7%	-9.0%
CC(C)c1ccc(NC(=O)CSc2nc3ccccc3nc2Cc2ccccc2)cc1	-3.6%	-15.7%
Cc1ccccc1Cn1c(SCc2ccc(C(=O)NCCc3ccccc3)cc2)nc2ccncc21	?	-27.9%
CC(C)c1ccc(/C=c2\sc3nc(-c4ccncc4)nn3c2=O)cc1	-8.1%[1.46 µM]	-10.1%
Cc1cc(C)cc(NC(c2cccc(Cl)c2)c2nnc(-c3ccccc3)o2)c1 (stereo unspecified)	-8.0%	3.7%
CC[C@H]1C=C[C@@H](C(C(=O)OC)C(=O)OC)CN1C(C)=O	-7.0%	-7.0%
Cc1ccc(OCC(=O)NCCCNC(=O)c2cccnc2)cc1C	i	-13.6%
CCN(CC(=O)NC(C)C)C(=O)c1ccc(Cl)cc1	-9.4%	-4.8%
Cn1nc(C(C)(C)C)cc1NC(=O)C1(C)CCN1C(=O)CC(c1ccccc1)c1ccccc1 (stereo unspecified)	-0.6%	-14.3%
O=c1cc(-c2c(F)c(F)c(F)c(F)c2F)oc2ccccc12	-25.1%	-21.5%
CC(C)c1cccc(-c2csc(C(O)c3ccc(F)c(F)c3)n2)c1 (stereo unspecified)	i	-10.5%
COc1cc2c(cc1OC)C(COc1ccc(F)cc1)N(C(=O)c1ccccc1F)CC2 (stereo unspecified)	-2.5%	-2.4%
Cc1cc(NCCCn2ccnc2)n2ncc(-c3ccccc3)c2n1	/	?
O=C(CNC(=O)c1ccc(Br)cc1)NCC(=O)OCC(=O)c1ccccc1	-1.7%	6.7%
Cc1ccc(C)c(N2CCN(CCCNC(=O)c3cnn(-c4cccc(Cl)c4)c3C3CCN(C(=O)OC(C)(C)C)CC3)CC2)c1	?	?
O=C(CC1CCCCC1)Nc1nc2ccccc2s1	-10.1%	-7.3%
Cc1c(Cl)cccc1NC(=S)NCCc1ccc(S(N)(=O)=O)cc1	i	-18.9%
COC(=O)C1=CO[C@@H](C)[C@@H]2CN3CC[C@]4(C(=O)Nc5ccccc54)[C@@H]3C[C@H]12	-14.9%	?
C=CCN(c1ccccc1)S(=O)(=O)c1cccc(C(=O)Nc2cc(C)ccn2)c1	-8.1%	5.7%
CCCN(CC(=O)Nc1ccccc1C)C(=O)c1ccc(S(=O)(=O)N2CCCCC2)cc1	-14.4%	-17.5%
COc1ccc(C[C@H]2CN3C(=NC[C@@H]3C(C)C)N2CCNC(=O)CCC2CCCCC2)cc1	-4.1%	-24.8%
O=C(COC(=O)Cc1c[nH]c2ccccc12)Nc1ccccc1C(F)(F)F	-13.9%	-10.7%
COc1ccc(CCNC(=O)CC2SC(N)=NC2=O)cc1OC (stereo unspecified)	i	-4.5%
O=C(CNC(=O)c1cccs1)Nc1ccc2c(c1)OCCO2	-13.4%	-15.5%
N#Cc1ccc(-c2nc3ccc(Br)cn3c2Cc2cccc(Cl)c2)cc1	i	0.7%
COc1ccc(NC(=O)CN(C)C(=O)Cc2coc3cc(C)c(C)cc23)cc1	-26.6%	-14.6%
Clc1ccccc1CSc1ncccn1	-35.6%	-0.7%
CCOC(=O)C1CCN(C(=O)CCCOc2ccccc2)CC1	-10.4%	-8.0%
COc1ccc(CNc2oc(-c3cccc4ccccc34)nc2C#N)cc1	-11.8%	-4.7%
CCN(CC(=O)Nc1ccccc1OC)C(=O)c1cc(-c2ccccc2)nn1-c1ccccc1	-9.1%	-21.6%
CC(C)NCC(O)c1ccc(N)c(C#N)c1 (stereo unspecified)	0.0%[87.9 µM]	-6.5%[87.9 µM]
S=C1NC[C@H](c2ccccc2)N1CCCCC1CCCCC1	?	-18.1%
Cc1ccc(NC(=O)N2CCCCCC2)cc1	-13.5%	-19.9%
O=C(/C=C/Nc1cccc(C(F)(F)F)c1)c1ccc(Oc2ncccn2)cc1	-20.7%	-20.7%
COc1ccc(-c2csc(-c3cccs3)n2)c(OC)c1	-2.4%	-2.5%
O=C(Nc1ccc(-c2nc3ccccc3[nH]2)cc1)c1cccc(N2C(=O)CCC2=O)c1	-5.5%	-2.9%
CCCC(=O)Nc1ccccc1-c1nnc(SC)[nH]c1=O	i	-10.4%
Cn1c(C(=O)N2CCN(c3ccc(Cl)cc3)CC2)cc2c(=O)[nH]c3ccccc3c21	-17.8%	?
CCC(C)c1ccccc1NC(=O)c1cc2cccc([N+](=O)[O-])c2[nH]1 (stereo unspecified)	-11.5%[7.34 µM]	-3.8%[7.34 µM]
CCC(c1nc2ccccc2[nH]1)n1c(=O)c(-c2cccnc2)nc2ccccc21 (stereo unspecified)	-11.7%	1.7%

Rewritten with two lines to a compound: entries from further up.
The line under a structure holds: VACV mCherry inh | VACV Venus inh
COc1ccc(-c2csc(-c3cccs3)n2)c(OC)c1
    -2.4% | -2.5%
O=C(Nc1ccc(-c2nc3ccccc3[nH]2)cc1)c1cccc(N2C(=O)CCC2=O)c1
    -5.5% | -2.9%
CCCC(=O)Nc1ccccc1-c1nnc(SC)[nH]c1=O
    i | -10.4%

Taken from above:
Under VACV mCherry inh, COc1ccc(NC(=O)CN(C)C(=O)Cc2coc3cc(C)c(C)cc23)cc1 shows -26.6%
Under VACV mCherry inh, Clc1ccccc1CSc1ncccn1 shows -35.6%
Under VACV mCherry inh, COc1ccc(-c2csc(-c3cccs3)n2)c(OC)c1 shows -2.4%
Under VACV Venus inh, O=C(/C=C/Nc1cccc(C(F)(F)F)c1)c1ccc(Oc2ncccn2)cc1 shows -20.7%
Under VACV mCherry inh, CCC(C)c1ccccc1NC(=O)c1cc2cccc([N+](=O)[O-])c2[nH]1 (stereo unspecified) shows -11.5%[7.34 µM]

(list continues)
SMILES	VACV mCherry inh	VACV Venus inh
O=C(Cn1c(=O)n(Cc2ccco2)c(=O)c2oc3ccccc3c21)Nc1ccc(F)cc1F	-4.9%	-9.3%
COc1cccc(C(O)c2nc(-c3ccccc3C)cs2)c1 (stereo unspecified)	5.3%	-6.7%
O=C(Nc1ccc(OC(F)(F)F)cc1)c1ccc(S(=O)(=O)N2CCOCC2)o1	i	-10.2%
O=C(c1cccc(Cl)c1)N1CCC(c2nc3ccccc3[nH]2)CC1	-11.5%	7.9%
O=C(Nc1nc2c(F)cccc2s1)c1ccco1	-14.6%	-15.1%
CC1(c2nnc(-c3ccc(Cl)cc3)o2)CC(c2c(Cl)cccc2Cl)=NO1 (stereo unspecified)	0.9%	-10.5%
Fc1ccccc1-n1c(-c2ccc3ccccc3n2)n[nH]c1=S	-3.7%	-25.5%
CC(C)c1nnc(NC(=O)C2CCN(C(=O)Nc3ccccc3)CC2)s1	16.9%	0.9%
CCN(CC(=O)Nc1c(F)cccc1F)C(=O)Cc1ccc2c(c1)CCC2	-15.6%	-14.3%
CCc1cccc(C)c1NC(=O)Cn1c(=O)cc(C)c2c(C)nn(-c3cccc(F)c3)c21	-11.7%	-2.1%
CNC(=O)C(=O)NCC1CCCN1S(=O)(=O)c1cccs1 (stereo unspecified)	-1.7%	-8.7%
COc1ccc(OC)c2[nH]c(C(=O)N/N=C/c3ccccc3O)cc12	?	?
Cc1ccccc1NC(=O)Cc1nc(COC(=O)c2cccc([N+](=O)[O-])c2)cs1	-22.1%	-14.3%
O=S(=O)(Nc1cc(S(=O)(=O)N2CCOCC2)ccc1NCC1CCCO1)c1ccc(F)cc1 (stereo unspecified)	2.24µM*	?
CCOC(=O)c1nn(-c2ccc(F)cc2)c(-c2ccccc2)c1C(=O)c1ccccc1	/	-2.7%
O=C(Nc1nc(-c2cc3ccccc3oc2=O)cs1)c1ccco1	-6.3%	-12.1%
Cc1ccc(NC(=S)N(Cc2cccc(Br)c2)CC2CCC(C(=O)O)CC2)cc1Cl (stereo unspecified)	5.4%	0.5%
O=C(CN1C(=O)CN=C(c2ccccc2Cl)c2cc(Cl)ccc21)NCc1ccco1	/	-15.5%
COC(=O)c1cccc(CN2C(=O)SC(Nc3ccccc3)C2=O)c1 (stereo unspecified)	-11.6%	-7.7%
COC(=O)c1ccc(OC)c(Cn2c(=O)n(C)c(=O)c3ccccc32)c1	i	-20.3%
O=[N+]([O-])c1cc(S(=O)(=O)N2CCCCC2)ccc1NCCCN1CCOCC1	i	2.2%
Cc1cccc(NC(=O)/C(C#N)=C/c2ccco2)c1	-4.9%	5.1%
C[C@@H]1CCC[C@H](C)N1NC(=O)c1ccc(Cl)c(S(N)(=O)=O)c1	i	-15.8%
O=C(NCc1ccncc1)C1CCCN(S(=O)(=O)c2cc(Cl)ccc2Cl)C1 (stereo unspecified)	-26.2%	-1.4%
CCOC(=O)C1=C[C@@H](C(C)(C)C)N(S(=O)(=O)c2ccc([N+](=O)[O-])cc2)[C@H]1c1ccccc1	i	-5.5%
O=C(COc1ccc2ccccc2c1Br)N1CCOCC1	-15.4%	-10.8%
Cc1ccc(-c2csc3ncnc(N4CCN(S(=O)(=O)c5cccs5)CC4)c23)cc1	-2.5%	-15.0%
COc1ccc(CCNC(=O)c2ccc(CNc3c(N4CCOCC4)c(=O)c3=O)cc2)cc1OC	/	-0.1%
Cc1cccc2cc(CNCc3ccccc3)c(Cl)nc12	i	3.9%
COc1ccccc1Nc1nnc(SCC(=O)Nc2nc(-c3ccc(F)cc3)cs2)s1	i	?
CCCCN1C(=O)C(CC(=O)NCc2cccs2)CC(C(=O)N2CCOCC2)=C1C (stereo unspecified)	i	0.8%
CC(C)c1ccc(-n2c(-c3ccccc3)c[n+]3c2CCc2ccccc2-3)cc1	?	?
CCCCNC(=O)C1(C)CCCCN1C(=O)c1cc(C#N)cs1 (stereo unspecified)	6.6%	-6.0%
COc1ccccc1N1CCN(C(=O)CCc2nnc3ccc(N4CCOCC4)nn23)CC1	-23.9%	-8.6%
O=[N+]([O-])c1ccc2nc(-c3ccccn3)[nH]c2c1	?	-21.2%
Nc1cccc(C(=O)OCC(=O)Nc2cccc3c2C(=O)c2ccccc2C3=O)c1	?	-27.7%
O=C(NCCCn1ccnc1)c1ccc(Br)c(S(=O)(=O)N2CCOCC2)c1	-2.7%	2.5%
C/C(=C\C(=S)Nc1ccccc1)Nc1ccccc1	i	-1.2%
COc1cccc(C(=O)Nc2cccc(OCC(=O)c3ccccc3)c2)c1	?	?
CCCCOCCCn1cnc2c([nH]c3cc(OC)ccc32)c1=O	/	-17.1%
CCCCCCCN1N=C(C)C(C(=O)c2ccccc2)C1=O (stereo unspecified)	-19.4%	-12.8%
COc1ccc2c(c1)c(C(=O)N/N=C/c1ccc(Cl)cc1)c(C)n2C	-26.2%	-21.1%
Nc1ccc2c(c1)C(=O)c1ccc(Br)cc1-2	-32.9%	-20.7%
O=C1CCCN1CCCNc1ncnc2sccc12	-8.6%	-0.2%
CC1CCCC(C)N1C(=O)CSc1nnnn1Cc1ccccc1 (stereo unspecified)	-14.5%	-17.9%
O=C(c1ccc2c(=O)n(Cc3ccco3)c(=S)[nH]c2c1)N1CCN(Cc2ccc3c(c2)OCO3)CC1	-21.9%	?
CC(C)[C@]12CC(=O)[C@H](C)[C@H]1C2	-12.9%	-12.2%
